Screens: PubChem BioAssay, National Center for Advancing Translational Sciences (NCATS)
Vaccinia mCherry – qHTS for Stage-Specific Inhibitors of Vaccinia Orthopoxvirus: mCherry Reporter Primary qHTS. Vaccinia virus mCherry reporter infection, fluorescence; about a quarter of the inactives have no number. Potency, µM (top dose mostly 36.5 µM), inactives show at the highest dose activity change, negative = inhibition, most hits filed as inhibitors. hit rate 0.63% among 310,000. AID 720579, 2013; active = well fitted inhibition curve with a large enough effect; inconclusive = small, poorly fitted or top-dose-only effect; inactive = no such curve, though single readings can be large or run the other way; tested in A549 cells; also: nearly all actives have a fitted effect of over 35% in size; inactives centre near -10
Vaccinia Venus – qHTS for Stage-Specific Inhibitors of Vaccinia Orthopoxvirus: Venus Reporter Primary qHTS; Vaccinia virus Venus reporter expression, fluorescence; Potency, µM (titrated, usually from 36.5 µM), without a hit: top-dose activity change, negative = inhibition, hits mostly inhibitors; hit rate 0.46% among 330,000; active means well fitted inhibition curve with a large enough effect; inconclusive means small, poorly fitted or top-dose-only effect; inactive means no such curve, though single readings can be large or run the other way; tested in A549 cells; also: nearly all actives have a fitted effect of over 30% in size; inactives centre near -10
* marks the source's active call; other numbers are inactive results; i = inactive; ? = inconclusive; nt = no result given; & = joins results of further samples; [ ] = remark or other dose. % is scaled to controls: 0 for no effect and ±100 for the full control effect; potency is read from the fitted curve at half-maximal effect.

SMILES | Vaccinia mCherry | Vaccinia Venus
O=C(Nc1ccccc1-c1ccccc1)c1ccc(Cl)c([N+](=O)[O-])c1 | 20µM* | 13µM*
COc1ccc(-c2nnc3ccc(SCC(=O)N4CCCC4)nn23)cc1 | -14% | -4%
Cc1ccc(CNC(=O)CCNS(=O)(=O)c2cccc3nonc23)cc1 | 2% | 2%
O=c1[nH]c(=O)n(CCc2ccccc2)c(O)c1C=NCCCn1ccnc1 | nt | -10%
COc1ccccc1CN1CC(C(=O)NCc2cc(F)ccc2C)CCC1=O (centres undefined) | -6% | -9%
CCOC(=O)C1CCN(S(=O)(=O)CCNC(=O)c2ccc(F)cc2)CC1 | -4% | -10%
Cc1nnc(SCC(=O)Nc2ccc3[nH]c(=O)[nH]c3c2)s1 | -15% | -6%
Cc1cccc(CS(=O)(=O)Cc2ccc(C(=O)NCc3ccco3)o2)c1 | -18% | -11%
CC(C)=CC(=O)OCC(=O)Nc1ccc(SC(F)F)cc1 | i | 0%
Cc1ccc(SCc2cc(=O)[nH]c(Nc3nc(C)c4cccc(C)c4n3)n2)cc1 | -7% | -6%
O=C(CCN1CCCCC1)Nc1ccc(Br)cc1C(=O)c1ccccc1 | i | -13%
Cc1cccc(CN2CCN(C3CN(Cc4ccccc4)S(=O)(=O)C3)CC2)c1 (centres undefined) | 16% | -1%
CC1C/C(=N\NC(=O)c2ccc(NS(=O)(=O)c3ccc(Br)cc3)cc2)CC(C)(C)C1 (centres undefined) | i | 1%
O=c1nc(N/N=C/c2ccccn2)cn[nH]1 | 4µM* | ?
COc1ccccc1C(=O)NCCC(=O)NC1CCCCCC1 | i | -7%
COc1ccc(/C=N\n2nnc3ccccc32)cc1 | -11% | -6%
CC(C)C1C(=O)N(Cc2cn(CC3CCCCC3)nn2)CCS(=O)(=O)N1Cc1ccc(-c2ccncc2)cc1 (centres undefined) | -11% | -26%
CC1(C(=O)NS(=O)(=O)C2CC2)CCCN(C(=O)c2ccc3ccccc3c2)C1 (centres undefined) | 14% | -2%
Cc1ccc(C(=O)N2CCN(c3cccc(C)c3C)CC2)cc1S(=O)(=O)N1CCOCC1 | -26% | -20%
COc1ccc(C(=O)NCCN(C)C)c2nc3ccccc3cc12 | 1µM* | 6.3µM*
O=C(Nc1nnc(SCC(=O)N2CCCc3ccccc32)s1)c1ccc2ccccc2c1 | i | -7%
CCc1ccc(-c2cc(C)no2)cc1S(=O)(=O)N1CCN(c2ccc(C(C)=O)cc2)CC1 | -14% | -6%
Cc1oc(-c2ccc(Cl)cc2)nc1CSc1nnc(C)n2c1cc1sccc12 | -15% | -2%
CCOC(=O)c1c(NC(=O)/C=C/c2ccc(OCC)cc2)sc(C)c1C | -7% | -4%
CCOC(=O)N1CCN(C2CCCN(C(=O)c3cccc(N(C)C)c3)C2)CC1 (centres undefined) | -9% | -9%

As entered above:
Cc1ccc(CNC(=O)CCNS(=O)(=O)c2cccc3nonc23)cc1 in Vaccinia Venus: 2%
CC(C)C1C(=O)N(Cc2cn(CC3CCCCC3)nn2)CCS(=O)(=O)N1Cc1ccc(-c2ccncc2)cc1 (centres undefined) in Vaccinia Venus: -26%

The results go on:
SMILES | Vaccinia mCherry | Vaccinia Venus
CCNC(=O)C1(C)CCCN(Cc2ccc(-c3ccccc3)o2)C1 (centres undefined) | 37%[activator] | -1%
Cc1cc(C)c(S(=O)(=O)NC2CC2)c(C)c1 | -10% | -3%
COc1ccccc1-n1c(SCC(=O)Nc2ccc(Br)cc2)nc(O)cc1=O | -24% | -11%
COc1ccc(NC(=O)CSc2nc3ccccc3c(=O)n2CCCN2CCOCC2)c(OC)c1 | -3% | -5%
CC1CN(C(=O)CCC(=O)N2CCN(c3ccccn3)CC2)c2ccccc2O1 (centres undefined) | -13% | 2%
CCOC(=O)CSc1nnc2n(-c3ccccc3)c(=O)c3c4c(sc3n12)CC(C(C)(C)C)CC4 (centres undefined) | -10% | -10%
O=C(CN1C(=O)S/C(=C\C=C\c2ccccc2)C1=O)Nc1cccc(O)c1 | ? | ?
N#CC(C#N)=C1C(=O)N(CCN2CCCCC2)c2ccccc21 | -5% | 5%
Cc1cccn2c(CN[C@@H]3CCCC[C@H]3c3ccccc3)c(C(=O)N3CCOCC3)nc12 | -2% | -5%
Cc1ccc(OCC(=O)c2cc(C)n(-c3cc(C)on3)c2C)c([N+](=O)[O-])n1 | -13% | -14%
CCN1/C(=C/c2ccc3cc(C)ccc3[n+]2CC)Sc2cc(C)c(C)cc21 | ? | nt
CC(=O)Oc1ccc(Cn2c(C)c(C(=O)NCc3ccccc3C(F)(F)F)sc2=O)cc1 | 19% | -8%
CCOC(=O)CSC1=NC(=O)/C(=C/c2ccc(Br)cc2)S1 | -2% | -13%
O=C(CCC(=O)N1C[C@H]2C[C@@H](C1)c1cccc(=O)n1C2)NCc1cccc(C(F)(F)F)c1 | -6% | -8%
Cc1cc(OCC(=O)NCCCN2CCCC2=O)c2c(C)c(C)c(=O)oc2c1 | -3% | -6%
N#Cc1c(N2C(=O)Nc3ccccc3N2O)sc2c1CCCCCC2 | -1% | 7%
CCOC(=O)C1CCN(C(=O)CSc2c3c(nc4ccccc24)CCC3)CC1 | i | -7%
CC1CCCN(S(=O)(=O)c2cc3c(cc2Cl)NC(=O)CO3)C1 (centres undefined) | -9% | -19%
O=C(O)c1ccccc1C(=O)NNc1cccc(Cl)n1 | -13% | 4%
CCCOc1ccc(C(C)=O)cc1Cc1c(O)[nH]c(=S)[nH]c1=O | -12% | 1%
COc1ccc(S(=O)(=O)N(C)c2ccc(C(=O)N3CCCC3)cc2)cc1 | i | -7%
COc1ccccc1C(=O)NC(=S)Nc1ccc(N2CCOCC2)cc1 | i | -21%
CCC(Oc1ccccc1)C(=O)Nc1cc(C)on1 (centres undefined) | i | -2%
COc1ccc(Cc2nnc(SCC(=O)Nc3ccccc3C#N)o2)cc1 | i | -8%
CCc1nnc(NC(=O)CSCc2cc(=O)n3nc(C)sc3n2)s1 | i[7.34 µM] | 1%[7.34 µM]

For reference, some entries already given.
SMILES | Vaccinia mCherry | Vaccinia Venus
CCC(Oc1ccccc1)C(=O)Nc1cc(C)on1 (centres undefined) | i | -2%
COc1ccc(Cc2nnc(SCC(=O)Nc3ccccc3C#N)o2)cc1 | i | -8%
CCc1nnc(NC(=O)CSCc2cc(=O)n3nc(C)sc3n2)s1 | i[7.34 µM] | 1%[7.34 µM]

Further entries follow.
SMILES | Vaccinia mCherry | Vaccinia Venus
CC(C)NC[C@H](O)c1ccc(O)c(O)c1 | 0% | -15%
Cc1ccc2occ(CC(=O)N3CCN(c4cccc(Cl)c4)CC3)c2c1 | i | -10%
Cc1ccccc1OCC(=O)N/N=C/c1cn(Cc2ccccc2)c2ccccc12 | -6% | -2%
CCOC(=O)c1cc(-c2ccc(OC)cc2)nc2c1c(C)nn2CCC(N)=S | ? | -11%
O=C(CCN1C(=O)/C(=C/c2ccccc2Cl)SC1=S)N1CCCC1 | i | -4%
Cc1ccc(C(=O)OCC(=O)N2CCC(Cc3ccccc3)CC2)cc1N | -14% | 2%
COC(=O)[C@]1(C)N[C@H](CN(C)C(=O)c2ccc(F)cc2)[C@@H]2C(=O)N(Cc3ccccc3)C(=O)[C@@H]21 | -22% | -12%
Cc1cc(NC(=O)c2ccc(Cl)cc2)n(CCOC(=O)c2ccc(Cl)cc2)n1 | -10% | -14%
CC1CCCCC1NC(=O)CN1c2cccc3cccc(c23)S1(=O)=O (centres undefined) | -23% | -11%
O=C1CC(c2ccccc2)NC(=S)N1 (centres undefined) | i | -4%
CNc1ccc2ncc(-c3cccc(C(=O)N(C)C)c3)n2n1 | 0% | -18%
CC1CCCC(C)N1C(=O)CSc1nc2ccccc2c(=O)[nH]1 (centres undefined) | -13% | -16%
CC(Sc1nccn1C)C(=O)c1c(N)n(C)c(=O)n(C)c1=O (centres undefined) | -13% | -3%
CCN(CCn1cccn1)C(=O)c1cc(COc2ccccc2SC)on1 | i | -13%
COC(=O)[C@H](CC(C)C)N(Cc1ccccc1)S(=O)(=O)N(Cc1ccc(OC)cc1)[C@@H](CC(C)C)C(=O)OC | -29%&-6% | 5%&-15%
O=C(COC(=O)CNC(=O)c1cccc([N+](=O)[O-])c1)Nc1cccc(S(=O)(=O)N2CCCC2)c1 | -13% | -1%
OC1CCCC1 | i | -9%
COc1ccccc1C=NN=Cc1ccccc1OC | i | -12%
O=C(CN1C(=O)COc2ccccc21)Nc1ccc(F)cc1 | -16% | -8%
CC(=O)n1nc(-c2ccco2)nc1SCc1ccccc1 | -11% | -4%
CCN(CC)S(=O)(=O)c1cccc(-c2nnc(SCC(=O)NCCC3=CCCCC3)n2N)c1 | -23% | -23%
CCOc1ccc2nc(SCC(=O)NC3CCCCC3)[nH]c2c1 | -8% | -5%
Cc1ccc(C)c(N2CCN(Cc3nnc(-c4ccc5c(c4)OCO5)o3)CC2)c1 | -5% | -17%
CCOC(=O)CSc1nnc(C)c(=O)[nH]1 | -13%[1.46 µM] | -9%
COc1ccc(NC(=O)N(C)[C@H]2C[C@H]3c4[nH]c5ccccc5c4CCN3C[C@H]2[C@H](C)O)cc1 | -18% | ?
SMILES | Vaccinia mCherry | Vaccinia Venus
Cc1cc(C)cc(C(=O)NC(CC(N)=O)c2ccc(NC3CCCCCCC3)c([N+](=O)[O-])c2)c1 (centres undefined) | ? | -24%
Cn1c2c(c(=O)[nH]c1=O)C(NC(=O)c1ccco1)(C(F)(F)F)C(=O)N2 (centres undefined) | -11% | -6%
CC(C)(C)OC(=O)N1CCC(c2c(C(=O)Nc3ccc4c(c3)OCO4)cnn2-c2ccccc2)CC1 | -21% | -2%
O=S(=O)(N/N=C/c1ccc(F)cc1)c1ccccc1 | -4% | -11%
CCc1ccccc1OCC(=O)Nc1ccc2c(c1)OCCO2 | -18% | -3%
O=C(CSc1nnnn1C1CCCCC1)NCCc1ccccc1 | -14% | 1%
CCC(C)[C@H]1CNC(=O)C(=O)N1CCCc1cc(OC)c(OC)c(OC)c1 (some centres undefined) | i | 1%
O=C(C[C@@H]1C[C@H]2c3cc(NC(=O)C4CCC4)ccc3O[C@H]2[C@@H](CO)O1)NCc1ccc(-c2ccccc2)cc1 | ? | -21%
COc1ccc(CN2CCC(n3nccc3NC(=O)C3CC3)CC2)c(Cl)c1OC | i | -9%
S=c1[nH]ccn1-c1cccc(Cl)c1 | -15% | -16%
COCc1ccc(CN2CCOc3ccc(C4=CCCCC4)cc3C2)o1 | -7% | 1%
CN(CC(=O)Nc1ccc(Cl)c(C(F)(F)F)c1)C(=O)Cc1cccs1 | -11% | -9%
Cc1ccc(Cl)cc1NC(=O)c1oc2ccc(S(=O)(=O)N3CCCCCC3)cc2c1C | -17% | -21%
Cc1ccc(Nc2nc3c(S(=O)(=O)c4ccccc4)nnn3c3ccc(Cl)cc23)c(C)c1 | -19% | -14%
CCOc1ccc(NC(=O)CNC(=O)c2ccc(OC)c(OC)c2)cc1 | nt | -8%
CSc1ncc(C(=O)Nc2ccc(Cl)cc2)c(C)n1 | 4% | -7%
CCSc1ccc(-c2ccc(C)cc2)nn1 | -17% | -16%
CCC(=NCCC1=CCCCC1)c1c(O)[nH]c(=O)[nH]c1=O | nt | -20%
COc1ccc(C(=O)C[C@@H]2OC[C@H](C)N2S(=O)(=O)c2ccc(C)cc2)cc1OC | ? | -20%
CCCNC(=O)c1ccccc1NC(=O)CN(c1ccccc1OCC)S(C)(=O)=O | -7% | -7%
CCC[C@@H]1C[C@@H](C(=O)NC(C(C)Cl)[C@H]2O[C@H](SC)[C@H](O)[C@@H](O)[C@H]2O)N(C)C1 (some centres undefined) | -6% | -8%
Cc1ccc(-c2cn3nc(N4CCC(C(=O)Nc5ccccc5C)CC4)sc3n2)cc1 | -10% | -16%
COC(=O)[C@@]1(Cc2ccc(F)cc2)[C@H]2c3cc(C(=O)N(C)C)n(Cc4ccccn4)c3C[C@H]2CN1C(=O)c1ccccc1 | i | -15%
CC(C(=O)NC(C)(C)C)N(Cc1cccs1)C(=O)CCN1CCc2ccccc21 (centres undefined) | -12% | 0%
CC(C)c1ccc(NCCC(=O)c2ccc(Br)cc2)cc1 | -11% | -9%
SMILES | Vaccinia mCherry | Vaccinia Venus
Cc1cccc(C)c1NS(=O)(=O)c1ccc(F)cc1 | -13% | -12%
O=C(/C=C/c1ccccc1)NC(=S)Nc1ccc(N2CCOCC2)c(Cl)c1 | i | -10%
COC1OC(COCc2ccccc2)C(N)C(OCc2ccccc2)C1OCc1ccccc1 (centres undefined) | -4% | -12%
CN(C(=O)c1c2c(nc3ccccc13)C(=O)N(C1CCCCC1)C2)c1ccc(F)cc1 | -10% | -11%
COc1nc(NCCO)nc(Nc2ccc([N+](=O)[O-])cc2)n1 | -29% | -18%
COc1ccc(-c2ccc(NS(=O)(=O)c3cccc(Cl)c3)cc2)nn1 | -8% | -7%
COc1ccccc1-c1nn2c(=O)cc(CN3CCN(S(=O)(=O)c4ccc(C)cc4)CC3)nc2s1 | -4% | -7%
Nc1cc(=O)nc(SCc2ccccc2)n1Cc1ccco1 | nt | -9%
COc1cc(-c2nc(CN3CCN(C(=O)c4ccco4)CC3)c(C)o2)ccc1F | -8% | -19%
O=C(N/N=C/c1cccc(Br)c1)c1ccc(Br)cc1 | i | ?
COc1ccc(CCNC(=O)CSc2nnnn2-c2ccccc2)cc1 | -12% | -8%
